# GIRK2 activ – activators of human GIRK2 potassium channels; HEK293-GIRK2 thallium flux, Thallos fluorescence; 0.05% of 63,000 active; calls only for hits at 25 µM;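 active = among the strongest 0.2% of first-round signals and kept after retests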;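 also: first round at about 10 µM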
# Target sequence (P48051 whole entry, looked up): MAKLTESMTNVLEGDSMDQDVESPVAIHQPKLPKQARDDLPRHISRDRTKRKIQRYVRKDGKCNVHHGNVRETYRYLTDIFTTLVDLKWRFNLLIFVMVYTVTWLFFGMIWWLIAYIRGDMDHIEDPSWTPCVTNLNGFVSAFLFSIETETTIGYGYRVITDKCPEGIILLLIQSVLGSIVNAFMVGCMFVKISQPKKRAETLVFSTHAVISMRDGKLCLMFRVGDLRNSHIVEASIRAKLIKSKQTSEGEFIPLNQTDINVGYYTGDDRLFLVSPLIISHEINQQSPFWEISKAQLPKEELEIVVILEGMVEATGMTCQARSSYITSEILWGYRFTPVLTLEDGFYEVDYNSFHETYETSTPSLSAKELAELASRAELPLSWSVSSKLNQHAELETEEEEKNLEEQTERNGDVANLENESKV
# Calls only; i = inactive. The list is partial; rates above refer to the full screens.
# Start of the listing, in advance:
SMILES,GIRK2 activ
COc1ccc(CC(=O)Nc2ccc(Cn3cnc(C(=O)Nc4ccccc4C)c3)cc2)cc1,i
O=C(CC1CCCCC1)Nc1ccc(Cn2cnc(C(=O)Nc3ccccc3)c2)cc1,i
CCOC(=O)CCC(=O)NC(C)Cc1ccco1 (stereo not given),i
Cn1nc(-c2ccccc2)cc1C(=O)N1CCN(CC(O)c2cccs2)CC1 (stereo not given),i
COc1ccc(CC(=O)N2CCC(CSc3ccccn3)CC2)cc1OC,i
CCOc1ccccc1NC(=O)CSc1nnc(-c2ccc(OC)c(OC)c2)n1N,i
COc1cccc(-c2[nH]ncc2-c2nc(-c3cc(OC)c(OC)c(OC)c3)no2)c1,i

# All compounds of this part (from the top)
SMILES,GIRK2 activ
COc1ccc(CC(=O)Nc2ccc(Cn3cnc(C(=O)Nc4ccccc4C)c3)cc2)cc1,i
O=C(CC1CCCCC1)Nc1ccc(Cn2cnc(C(=O)Nc3ccccc3)c2)cc1,i
CCOC(=O)CCC(=O)NC(C)Cc1ccco1 (stereo not given),i
Cn1nc(-c2ccccc2)cc1C(=O)N1CCN(CC(O)c2cccs2)CC1 (stereo not given),i
COc1ccc(CC(=O)N2CCC(CSc3ccccn3)CC2)cc1OC,i
CCOc1ccccc1NC(=O)CSc1nnc(-c2ccc(OC)c(OC)c2)n1N,i
COc1cccc(-c2[nH]ncc2-c2nc(-c3cc(OC)c(OC)c(OC)c3)no2)c1,i
O=C(Cc1ccc(-c2ccccc2)cc1)NCCC(O)C1CC1 (stereo not given),i
COc1ccc(NC(C)=O)cc1NC(=O)Cc1cc(=O)[nH]c(SCc2ccccc2)n1,i
CCCCN1C(=O)CCc2cc(NC(=O)c3ccc4c(c3)OCO4)ccc21,i
Cc1noc(C)c1CN1CCN(C(=O)/C=C/c2ccccc2)CC1,i
O=C(NCc1cccc2ccccc12)NCC1CCN(S(=O)(=O)c2cccnc2)CC1,i
Cc1[nH]c2nc3c(c(=O)n(Cc4c(Cl)cccc4Cl)c(=O)n3C)n2c1C,i
COc1ccc(NC(=O)c2cnc3c(c(C)nn3-c3ccccc3)c2Cl)c(OC)c1,i
COc1cccc(COc2coc(C(=O)NCc3ccccn3)cc2=O)c1,i
COc1ccc(C)cc1NC(=O)N1CCN(c2ccc(C)nn2)CC1,i
CCCN1/C(=C/C=C/C=C/c2sc3ccccc3[n+]2CCC)Sc2ccccc21,i
CC(C)(C)c1csc(CN2CCN(CC(=O)Nc3ccc4c(c3)OCO4)CC2)n1,i
c1ccc(-c2cc(NCCc3c[nH]c4ccccc34)ncn2)cc1,i
Cc1cccc(OCC(=O)Nc2ccc(-n3nnc(C(=O)N(C)C)n3)cc2)c1,i
O=C(Nc1nccs1)c1cc(S(=O)(=O)NC2CCCC2)c(Cl)cc1Cl,i
CC1=C2C[C@H]3OC(=O)[C@H](O)[C@@]4(O)[C@@H](C)[C@@H](O)[C@H](O)C([C@@]2(C)[C@H](O)[C@@H](O)C1)[C@@]34C (stereo not given in full),i
O=C(NCCCS(=O)(=O)N1CCN(c2ncccn2)CC1)c1ccc(F)c(F)c1,i
O=C(NCC#CCOc1cccc(C(F)(F)F)c1)c1cccc(-n2cnnn2)c1,i
O=C(Nc1sc2c(c1CN1CCN(C(=O)c3ccco3)CC1)CCCC2)c1ccccc1F,i

# Part of the list above in order of heavy-atom count, falling.
SMILES,GIRK2 activ
COc1cccc(-c2[nH]ncc2-c2nc(-c3cc(OC)c(OC)c(OC)c3)no2)c1,i
Cc1cccc(OCC(=O)Nc2ccc(-n3nnc(C(=O)N(C)C)n3)cc2)c1,i
CCCCN1C(=O)CCc2cc(NC(=O)c3ccc4c(c3)OCO4)ccc21,i

# Of the compounds above, two have a thiophene ring, fused or not:
SMILES,GIRK2 activ
Cn1nc(-c2ccccc2)cc1C(=O)N1CCN(CC(O)c2cccs2)CC1 (stereo not given),i
O=C(Nc1sc2c(c1CN1CCN(C(=O)c3ccco3)CC1)CCCC2)c1ccccc1F,i

# Next part
SMILES,GIRK2 activ
CC(C(=O)NCCc1c[nH]c2ccccc12)n1nc(-c2ccccc2)ccc1=O (stereo not given),i
COc1ccc(C(=O)NCCS(=O)(=O)N2CCN(c3ccccc3OC)CC2)cc1,i
C/C=C/Cn1c(=O)c2c(nc3n(-c4ccc(C(N)=O)cc4)c(C)c(C)n23)n(C)c1=O,i
Cc1ccc(Cl)cc1NC(=O)Cn1nc(-c2ccccc2)c2sc(N3CCOCC3)nc2c1=O,i
O=C(Nc1ccc(F)c(Cl)c1)c1sccc1S(=O)(=O)N1CCN(c2ccccc2)CC1,i
O=C(C1CCCC1)N1CCCSCC1CN1CCCC1 (stereo not given),i
Cc1c(Cl)cccc1NC(=O)Cn1nc(C(=O)N2CCOCC2)cc1-c1cccs1,i
CCCS(=O)(=O)N1CCCc2ccc(NS(=O)(=O)c3cc(C)c(OC)c(C)c3)cc21,i
COCC(C)(O)CNC(=O)C(=O)NCc1ccc(C)cc1 (stereo not given),i
O=C(NCc1ccc2c(c1)OCO2)c1csc2nc(-c3ccc(F)cc3)cn12,i
COc1ccc(OC)c(NC(=O)Cn2c(N3CCOCC3)nc(C)cc2=O)c1,i
CCOC(=O)N1CCc2c(sc(NC(C)=O)c2-c2nc3ccccc3s2)C1,i
N#Cc1cnc(NC(=O)CSC2CCCC2)s1,i
CCOc1ccc(C(=O)N2CCN(S(C)(=O)=O)CC2)nn1,i
O=S(=O)(NCC(O)c1ccc2c(c1)CCO2)c1ccccc1Br (stereo not given),i
Cc1c(O)ccc(-c2[nH]ncc2-c2nc3ccccc3s2)c1O,i
COc1ccc(C2CC3C4NN=C(SCC(=O)NCc5ccccc5)N4C=CN3N2)cc1 (stereo not given),i
Cc1c(C(=O)Nc2cccc(-n3cnnn3)c2)nnn1-c1ccc2noc(-c3ccccc3)c2c1,i
Cc1oc2ccc(OCC(=O)NN)cc2c1C(=O)OC(C)C,i
CS(=O)(=O)c1ccc(CCC(=O)NC2CCN(c3nccs3)CC2)cc1,i
CC(C)Oc1ccc(C(=O)NCCC(O)C2CC2)cc1 (stereo not given),i
Cc1ccc(S(=O)(=O)c2c(C)nn(-c3ccccc3)c2OC(=O)C2CCCC2)cc1,i
O=C(CCc1nnc2ccc(-c3ccc(Cl)cc3)nn12)NCc1ccc(F)cc1Cl,i
CN(C)C(CNC(=O)c1cc(-c2ccccc2)on1)c1cccn1C (stereo not given),i
Cc1cc(C)c(N(C)S(=O)(=O)c2cc(N(C)S(=O)(=O)c3ccccc3)c(C)cc2C)c(C)c1,i
# Later entries
SMILES,GIRK2 activ
CCc1ccccc1NC(=O)c1ccc(S(=O)(=O)N(C)C)cc1,i
Cc1ccccc1OCC(=O)N1CCc2nc(NC(=O)c3ccco3)sc2C1,i
COc1ccccc1CNC(=O)Cn1nc2c(N3CCC(C)CC3)nccn2c1=O,i
CC(=O)c1ccc(NC(=O)Cn2cnc3c(c2=O)CN(Cc2ccccc2)CC3)cc1,i
O=C(NCc1cnn2ccccc12)c1csc(-c2ccccc2)n1,i
CCOc1cc(C(NC(=O)OCc2ccccc2)NC(=O)OCc2ccccc2)ccc1OC,i
CCS(=O)(=O)N1CCCc2ccc(NS(=O)(=O)c3ccc(OC)c(C)c3)cc21,i
COc1ccc(S(=O)(=O)Nc2ccc3c(c2)CCCN3S(=O)(=O)c2ccc(F)cc2)cc1F,i
COC(=O)C(C)Oc1ccc2c(c1)O/C(=C\c1cccc(Cl)c1)C2=O (stereo not given),i
O=C(Nc1nccs1)C1CCN(C(=O)c2ccc(=O)[nH]n2)CC1,i
O=C(Cc1cccc2ccccc12)N1CCN(c2ccc(-c3ccc4c(c3)OCO4)nn2)CC1,i
O=C(COc1ncccn1)N1CCN(c2cc(Nc3ccccn3)ncn2)CC1,i
Cc1ccc(C)c(N2CCn3c2nc2c3c(=O)n(CCN3CCOCC3)c(=O)n2C)c1,i
CCOC(=O)c1ccc(NC(=O)C2=Cc3ccccc3OC2)cc1,i
COc1ccc(C(=O)N2CCN(c3oc(/C=C/c4ccccc4Cl)nc3C#N)CC2)cc1,i
Cc1ccc(OCC(O)Cn2c(NCCN(C)C)nc3c2c(=O)[nH]c(=O)n3C)cc1C (stereo not given),i
O=C(c1ccc(Br)o1)N(C(=O)N1CCCCC1)c1ccccc1,i
O=C(CCS(=O)(=O)Cc1ccccc1)N(CC1CCCO1)c1nc2ccccc2s1 (stereo not given),i
CCSc1nc(-c2ccc(OC)c(OC)c2)cc(C(F)(F)F)c1C#N,i
Cn1nc(N2CCC(C(=O)NCC(F)(F)F)CC2)ccc1=O,i
COc1ccc(NC(=O)CN2CCN(c3ccccc3F)C2=O)cc1Cl,i
COc1cc2c(cc1OC)CN(C(=O)c1csc(Nc3ccccn3)n1)CC2,i
CC(=O)NC1=NN(C(C)=O)C2(S1)C(=O)N(Cc1ccccc1)c1ccc(Br)cc12 (stereo not given),i
Cc1ccc(NC(=O)Cn2cccc(-c3nc(-c4ccccc4C)no3)c2=O)cc1C,i
COc1cc(NC(=O)C2CCCCC2)ccc1N1CCCCC1=O,i
# Further results follow.
SMILES,GIRK2 activ
CCCc1cc(NCCOC)n2nc3nc(C)cc(C)c3c2n1,i
O=C(NC1CC(=O)N(C2CC2)C1)c1ccccc1C(F)(F)F (stereo not given),i
OC[C@@]1(O)CO[C@H](OC[C@H]2O[C@@H](OC(CCCCc3ccc(O)cc3)CCc3ccc(O)cc3)[C@H](O)[C@@H](O)[C@@H]2O)[C@@H]1O (stereo not given in full),i
COCCNC(=O)CSc1nc(-c2ccc(OC)cc2)[nH]c1-c1ccc(OC)cc1,i
CC[n+]1cccc(/C=C2\Oc3cc(O)ccc3C2=O)c1,i
CC(=O)c1ccc(OC(=O)c2cc3cc(Br)ccc3oc2=O)cc1,i
Cn1nc(CNC(=O)NC(c2ccccc2)c2ccccc2)cc1-c1ccccn1,i
Cc1ccc(C)c(OC(C)C(=O)Nc2cc(-n3cccn3)ncn2)c1 (stereo not given),i
O=C(Cn1c(=O)oc2ccccc21)Nc1nnc(-c2cc(Cl)sc2Cl)o1,i
COC(=O)c1ccc(NC(=O)CSc2nnc(N3CCN(c4ccc(F)cc4)CC3)s2)cc1,i
CCCCCCCC(=O)OC[C@H](CO)OC(=O)CCCCCCC,i
Cc1c(C)n2c3c(=O)n(C)c(=O)n(C)c3nc2n1CC(N)=O,i
CCn1c(C)c(C(C)=O)c2cc(OCC(O)CNC3CCCCC3)ccc21 (stereo not given),i
COCCN(Cc1ccoc1)S(=O)(=O)CC(C)C,i
COc1cccc(-n2c(=O)[nH]c3c(C(N)=O)nc(-c4ccco4)nc32)c1,i
O=C(NCc1ccc(F)cc1)C1CCCN(c2ncnc3c2oc2ccccc23)C1 (stereo not given),i
O=C(NCCCN1CCN(c2ccccc2)CC1)c1c(F)cccc1Cl,i
C#CC(C)(CC)OCC(O)CN1CCN(c2ccc(F)cc2)CC1 (stereo not given),i
O=C1N(c2ccc(F)cc2)C2CS(=O)(=O)CC2N1c1cccc(Br)c1 (stereo not given),i
O=C(NCCOc1ccccc1)Nc1cccs1,i
CCOc1ccc(NC(=O)C2CCC(CNS(C)(=O)=O)CC2)cc1 (stereo not given),i
CCc1c(-c2ccc(F)cc2)nn2c1NC(=O)C2CC(=O)Nc1ccccc1C(F)(F)F (stereo not given),i
Cc1ccccc1Cn1cnc2c(-c3ccccc3C)csc2c1=O,i
O=C(Cc1ccc(NS(=O)(=O)c2cccnc2)cc1)NCc1cccs1,i
O=c1ccc(-n2cccn2)nn1CCNS(=O)(=O)c1c(F)cccc1F,i
# More entries:
SMILES,GIRK2 activ
CCOc1ccc(C(=O)Nc2cccnc2)nn1,i
CCCCC/C=C\C/C=C\CC/C=C\CCCC(=O)OC,i
CCOc1ccc(-c2ccc(OCCNC(=O)c3ccc(OC)c(OC)c3)nn2)cc1,i
CC(=O)c1ccc(OCC(=O)NCc2sc(-c3cccs3)nc2C)cc1,i
CCOc1ccc(CN2C(=O)C3(SC(NC(C)=O)=NN3C(C)=O)c3ccccc32)cc1 (stereo not given),i
COc1ccc(NC(=O)COc2cc(C)nc(N3CCc4ccccc4C3)n2)cc1,i
COC(=O)c1ccc2c(=O)n(-c3cc(C)cc(C)c3)c(N3CCSC3)nc2c1,i
O=C(NCc1cccs1)N1CCN(Cc2nnnn2-c2ccccc2)CC1,i
CCCCN1C(=O)CCc2cc(NC(=O)c3cc(OCC)c(OCC)c(OCC)c3)ccc21,i
COC(=O)c1ccccc1NC(=O)Cn1cnc2c(sc3nc(C)cc(C)c32)c1=O,i
Cc1nc(-n2nnc(C(=O)NCCc3c[nH]c4ccccc34)c2C)sc1C,i
COC(=O)c1cc(NC(=O)CSc2nnc3scc(-c4ccc(C)cc4)n23)cc(C(=O)OC)c1,i
COC(=O)c1ccc2c(=O)n(CCCC(=O)NCc3cccs3)c(=S)[nH]c2c1,i
CN1CCCC(C(=O)NCC#CCOc2ccccc2C(N)=O)C1 (stereo not given),i
COc1ccccc1CCNC(=O)c1coc(NC(=O)c2ccccc2)n1,i
C=CCn1c(SCC(=O)Nc2cccc(C(C)=O)c2)nc2sc3c(c2c1=O)CCC(C)C3 (stereo not given),i
COc1ccc(OC)c(-n2c(N)c(C(=O)NCc3ccco3)c3nc4ccccc4nc32)c1,i
O=C(NCC(O)c1ccoc1)c1nc2ccccc2s1 (stereo not given),i
Cc1cn2nnc(C(=O)NCc3ccc(F)cc3Cl)c2c(=O)[nH]1,i
COc1ccc(C2(CNS(=O)(=O)CCOc3ccccc3)CCCC2)cc1,i
Cc1oc2cc(OCCN3CCOCC3)ccc2c(=O)c1-c1ccc(Br)cc1,i
CCOC(=O)CN1CCN(c2nc3c(c(=O)[nH]c(=O)n3C)n2Cc2ccccc2F)CC1,i
Cc1ccc(N2C(=O)C3N=NN(c4ccc(Br)c(C)c4)C3C2=O)cc1F (stereo not given),i
COc1ccc(SCCCC(=O)Nc2nnc(-c3cccs3)o2)cc1,i
O=C(NC12CC3CC(CC(C3)C1)C2)c1nnn(-c2ccc(F)cc2)n1,i
Cc1oc(C(=O)Nc2nc3ccccc3s2)cc1S(=O)(=O)N1CCCC(C)C1 (stereo not given),i

# Given with bars between the fields: two of the compounds above
SMILES | GIRK2 activ
COC(=O)c1cc(NC(=O)CSc2nnc3scc(-c4ccc(C)cc4)n23)cc(C(=O)OC)c1 | i
COC(=O)c1ccc2c(=O)n(CCCC(=O)NCc3cccs3)c(=S)[nH]c2c1 | i

# Screens: PubChem BioAssay, Vanderbilt University
